BasE inh – BasE siderophore biosynthesis inhibition; purified BasE, fluorescence polarization binding displacement; inhibition, % (no concentration beside the values); 84,000 compounds, 0.1% hits;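 active = both replicates above 25% with normal brightness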;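 note: 0% = negative plate control signal and 100% = positive plate control signal; stock transfer was 100 nL into about 30 µL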
KSHV LANA nucl – LANA-nucleosome interaction inhibition. z-score (no concentration beside the values). 51,000 compounds, 0.3% hits. AID 720717. FITC-LANA1-23 / chicken nucleosome fluorescence polarization; active compounds read low;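 active = both repeat wells score below -2 in polarization z-score versus plate sample wells, excluding overly bright wells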;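 note: 100 nL library stock added to about 30 µL; numbers are from one replicate; some results filed as inactive read as strong as hits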
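System – purified chicken nucleosomes with FITC-labelled LANA N-terminal peptide (1-23) · Amount – 240 nM purified chicken nucleosomes (480 nM peptide binding sites), final · Also added – 50 nM FITC-LANA1-23 probe · Medium – TEN-BT buffer, pH 7.5 · Incubation – compound with peptide–nucleosome mix 10–45 min at room temperature · Detection – fluorescence polarization, ex 480 nm, em 535 nm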
Numbers without * were called inactive; & = joins results of further samples. Some of the compounds tested, so the mix of outcomes need not match the whole.

How did CC1CN(C(=O)C(C)N2CCN(c3ncc(C(F)(F)F)cc3Cl)CC2)CC(C)O1 (stereo not given) do in these assays?
BasE inh: 0.1

How did Cc1cccc(C)c1NC(=O)C(c1ccccc1)N(Cc1ccco1)C(=O)Cn1nnc2ccccc21 (stereo not given) do in these assays?
BasE inh: 6.7; KSHV LANA nucl: -0.142

What do the screens show for `CCC(=O)Nc1ccc[n+](-c2nc3ccccc3nc2C(=C=[N-])C#N)c1`?
BasE inh: -0.6

What do the screens show for `Cc1ccn(C(=O)COc2ccc(Cl)cc2)n1`?
BasE inh: 1.5; KSHV LANA nucl: -0.028

How did CC(=O)Nc1ccccc1NC(=O)c1ccco1 do in these assays?
BasE inh: 1.2

How did C(=N\NC1=NCCN1Cc1ccccc1)/c1ccc2c(c1)OCO2 do in these assays?
BasE inh: -6.2; KSHV LANA nucl: 0.151

How did N#Cc1ccccc1COc1ccc(CO)cc1 do in these assays?
BasE inh: -4.8; KSHV LANA nucl: -0.433

What do the screens show for `O=C(NCCC12CC3CC(CC(C3)C1)C2)C1CCCCC1`?
BasE inh: 0.2

Results for O=C(O)c1ccc(NC(=O)c2cn(-c3ccccc3)nc2-c2cc3ccccc3o2)cc1 ?
BasE inh: 3.9

Results for CN(C)/C=C/C(=O)c1cc(C(C)(C)C)cc(C(C)(C)C)c1O ?
KSHV LANA nucl: -0.048

What do the screens show for `Cc1cccc(-c2c3c(nc4ncnn24)-c2ccccc2C3=O)c1`?
BasE inh: -1.0; KSHV LANA nucl: 0.827

Results for Cc1ccc(Oc2ncccc2NS(=O)(=O)c2ccc(-c3ccccn3)s2)c2c1CCC2 ?
BasE inh: -1.0

How did Cc1cccc(C(=O)NC(c2n[nH]c(=S)n2C)C(C)C)c1 (stereo not given) do in these assays?
BasE inh: -2.6; KSHV LANA nucl: 2.81

What do the screens show for `COc1ccccc1CN(C)C(=O)CNC(=O)c1ccc(Br)o1`?
BasE inh: 2.4

How did CC(C(=O)O)c1ccc2c(c1)Cc1cccnc1O2 (stereo not given) do in these assays?
KSHV LANA nucl: -0.0965

Results for Cc1cccc(CCNC(=O)Nc2cn(C)c(=O)c3ccccc23)c1 ?
BasE inh: -1.5; KSHV LANA nucl: -1.54

What do the screens show for `O=C(Cn1nc(C(=O)O)c2ccccc2c1=O)Nc1ccc(N2CCCCC2)cc1`?
BasE inh: -0.6

Results for COc1cc2[nH]c(=O)n(CCCC(=O)N3CCc4ccccc4C3)c(=O)c2cc1OC ?
BasE inh: -0.8; KSHV LANA nucl: -0.463

What do the screens show for `Cn1cnnc1SC(C(=O)Nc1cccc(C(F)(F)F)c1)c1ccccc1` (stereo not given)?
BasE inh: -0.8

Results for COc1ccc(OC)c(S(=O)(=O)/N=C2\C=C3N(CCO)CCOC3(O)c3ccccc32)c1 (stereo not given) ?
BasE inh: 3.2; KSHV LANA nucl: -0.146

Results for Cn1c2ccccc2c2nnc(SCC(=O)Nc3nnc(COc4ccccc4)s3)nc21 ?
BasE inh: 1.3; KSHV LANA nucl: 0.545

What do the screens show for `Cn1c2ccccc2c2n[nH]c(=O)nc21`?
BasE inh: 2.8; KSHV LANA nucl: 0.256

Results for CCOC(=O)C1CCN(S(=O)(=O)Cc2ccccc2)C1=O (stereo not given) ?
BasE inh: 1.7

Results for CN(C)CC(C)(C)C1OCC2(CO1)COC(C(C)(C)CN(C)C)OC2 (stereo not given) ?
BasE inh: 0.2; KSHV LANA nucl: 0.155

Results for CN1CCC(=NNc2ncnc3sc4c(c23)CCCC4)CC1 ?
BasE inh: 0.0

Results for COc1ccc(CCNC(=O)Cc2coc3c(C)c(C)ccc23)cc1OC ?
BasE inh: -1.3; KSHV LANA nucl: 0.241

How did NCCS(=O)(=O)NC1CCCCC1 do in these assays?
BasE inh: 4.0; KSHV LANA nucl: 0.144

What do the screens show for `COc1cc(CN2CCCN(C)CC2)cc(OC)c1OC`?
BasE inh: 1.3; KSHV LANA nucl: -0.68

How did COc1ccc(CCNC(=O)c2ccccc2OC)cc1 do in these assays?
BasE inh: 0.1

How did CCc1nn(CCCN2CCN(c3cccc(Cl)c3)CC2)c(=O)n1CCOc1ccccc1 do in these assays?
KSHV LANA nucl: -0.447&0.235

How did CN(Cc1ccccc1)S(=O)(=O)Cc1ccccc1 do in these assays?
BasE inh: 1.6; KSHV LANA nucl: -0.148

Results for CCN(C(=O)c1cc(S(=O)(=O)N2CCc3ccccc32)cn1C)c1ccc(OC)cc1 ?
BasE inh: 0.7; KSHV LANA nucl: 0.145

What do the screens show for `COCC(C)n1c(COc2ccccc2F)nnc1SCc1c(C)noc1C` (stereo not given)?
BasE inh: 5.6

Results for CCOC1C(OCC)N(S(=O)(=O)c2ccc(C)cc2)CCN1S(=O)(=O)c1ccc(C)cc1 (stereo not given) ?
BasE inh: -1.4; KSHV LANA nucl: 0.422

What do the screens show for `CC1CC(N(C(=O)c2ccco2)c2ccccc2)c2ccccc2N1` (stereo not given)?
BasE inh: 3.8

Results for CCN(C(=O)Nc1cn(C)c(=O)c2ccccc12)c1cc(C)ccc1C ?
BasE inh: -0.5; KSHV LANA nucl: 0.439

How did CC1CCc2cc(F)ccc2N1C(=O)c1cc2ccccc2oc1=O (stereo not given) do in these assays?
BasE inh: -2.1; KSHV LANA nucl: 1.98

Results for Fc1ccc(OCCc2nc(-c3ccc(C4SCCS4)cc3)no2)cc1 ?
BasE inh: 1.9; KSHV LANA nucl: -1.12

How did Cc1cccc(Cn2nc(-c3ccc4c(c3)OCO4)ccc2=O)c1 do in these assays?
BasE inh: 0.9; KSHV LANA nucl: -0.288

What do the screens show for `CC(Sc1nc2ccccc2c(=O)[nH]1)C(=O)Nc1ccc(N2CCOCC2)cc1` (stereo not given)?
BasE inh: 0.8

What do the screens show for `COC(=O)/C=C/S(=O)(=O)c1ccc(Br)cc1`?
BasE inh: 1.5; KSHV LANA nucl: -0.768

What do the screens show for `CCS(=O)(=O)N(C)c1ccc(C(=O)Nc2ccc(OC)cc2OC)cc1`?
BasE inh: 0.6; KSHV LANA nucl: -0.15

Results for CCN(CC(=O)c1ccc(Cl)s1)C1CCCCC1 ?
BasE inh: -1.4

Results for c1ccc2c(c1)N1CCCCCC1N2Cc1ccncc1 (stereo not given) ?
BasE inh: 0.8

What do the screens show for `O[C@H]1C2C3CC4C5C3C1C5C1(OCCO1)C42` (stereo not given in full)?
BasE inh: 2.3; KSHV LANA nucl: -0.509

How did N#CCCN(CCc1ccccn1)C(=O)Nc1ccccc1 do in these assays?
BasE inh: 1.8; KSHV LANA nucl: -1.27

Results for NS(=O)(=O)c1ccc(NC(=S)N2CCC(O)CC2)cc1 ?
BasE inh: 2.0

Results for CN(C)S(=O)(=O)c1ccc2c3c(cccc13)C(=O)N2C(=O)c1ccco1 ?
BasE inh: 0.2; KSHV LANA nucl: 0.701

Results for Cc1nc(N2CCOCC2)[nH]c(=O)c1CCC(C)C ?
KSHV LANA nucl: -0.385

How did CCOC(=O)Nc1cc(C(=O)OCC)c(C)nc1C do in these assays?
BasE inh: -4.5

How did O=C(O)CCCC(=O)Nc1ccc(Oc2ncnc3cc(Cl)ccc23)nc1 do in these assays?
BasE inh: -0.6; KSHV LANA nucl: -1.87

Results for COc1ccc(NC(=O)CC2c3ccccc3Oc3ccccc32)c(OC)n1 ?
BasE inh: -0.9; KSHV LANA nucl: -1.64

How did CCOC(=O)c1c(CN(C)C)n(C)c2c(O)c(N=NC(N)=O)c3ccc(Br)cc3c12 do in these assays?
BasE inh: -0.6; KSHV LANA nucl: 1.79

How did CCN1C(=O)/C(=c2\sc3nc(-c4ccccc4OC)nn3c2=O)c2cc(Br)ccc21 do in these assays?
BasE inh: 0.1; KSHV LANA nucl: 0.976

What do the screens show for `COC(=O)c1ccccc1NC(=O)Nc1nnc(N2CCCC2)s1`?
BasE inh: 2.4; KSHV LANA nucl: -0.004

Results for COc1cc(OC)c(NC(=O)C2CCCN(S(=O)(=O)c3ccc4c(c3)oc(=O)n4C)C2)cc1Cl (stereo not given) ?
BasE inh: 2.5; KSHV LANA nucl: -0.295

How did CC1CN(Cc2ccccc2)c2ccccc2NC1=O (stereo not given) do in these assays?
BasE inh: 0.2; KSHV LANA nucl: -0.407

What do the screens show for `O=C(c1ccc2nccnc2c1)N1CCCc2ccccc21`?
BasE inh: 4.4; KSHV LANA nucl: -1.17

What do the screens show for `O=C(Nc1ccc(N2CCOCC2)cc1)Nc1ccc2nc(-c3ccco3)c(-c3ccco3)nc2c1`?
BasE inh: 3.3; KSHV LANA nucl: -0.667

What do the screens show for `O=C(CSc1nnc(-c2ccncc2)o1)NC(=O)Nc1ccccc1`?
BasE inh: -2.8

Brought forward from above: three compounds; new compounds follow.
What do the screens show for `O=C(c1ccc2nccnc2c1)N1CCCc2ccccc21`?
BasE inh: 4.4; KSHV LANA nucl: -1.17

What do the screens show for `O=C(Nc1ccc(N2CCOCC2)cc1)Nc1ccc2nc(-c3ccco3)c(-c3ccco3)nc2c1`?
BasE inh: 3.3; KSHV LANA nucl: -0.667

What do the screens show for `O=C(CSc1nnc(-c2ccncc2)o1)NC(=O)Nc1ccccc1`?
BasE inh: -2.8

What do the screens show for `NS(=O)(=O)c1cc(C(=O)NCC2CCCCC2)ccc1Cl`?
BasE inh: -1.3

Results for Cc1ccc(S(=O)(=O)N2CCN(Cc3ccc4c(c3)OCO4)CC2)cc1C ?
BasE inh: 1.7; KSHV LANA nucl: -0.852

Results for CC1=C(C(=O)NCCN2CCCC2)C2(CCCCCC2)OC1=O ?
BasE inh: -0.3; KSHV LANA nucl: -0.759

What do the screens show for `Cc1c(CN(C)C(=O)CSc2nc(-c3ccco3)cc(C(F)(F)F)n2)cnn1C`?
BasE inh: 1.4; KSHV LANA nucl: -0.26

What do the screens show for `CC(C)c1nc(/N=C/N(C)C)nc(=O)n1C`?
BasE inh: 1.1

What do the screens show for `CCOC(=O)C1=C(CN(Cc2ccco2)C2CCCC2)NC(=O)NC1c1ccc(Cl)cc1` (stereo not given)?
BasE inh: -2.7; KSHV LANA nucl: -0.83

What do the screens show for `S=C(Cc1ccc2c(c1)OCCO2)N1CCOCC1`?
BasE inh: 1.7

Results for Cc1ccc(O)c(C2(O)C(=O)c3ccccc3C2=O)c1 ?
BasE inh: 2.5

What do the screens show for `Cc1ccc(-n2c(C)cc(C3=NN=C(N)SC3)c2C)cc1C`?
BasE inh: -0.7

How did Cn1cc(S(=O)(=O)N2CCOCC2)cc1C(=O)N(CCc1ccccc1)Cc1ccccc1 do in these assays?
BasE inh: 1.0; KSHV LANA nucl: 1.31

Results for CCOC(=O)c1ccc(NN)cc1 ?
BasE inh: 1.8; KSHV LANA nucl: -0.582

What do the screens show for `Nc1c(C(=O)c2ccccc2)sc2nc3c(cc12)CCCC3`?
BasE inh: 1.3

Results for CC(=O)N(CCCCN1C(=O)c2ccccc2C1=O)c1ccc(C)cc1 ?
BasE inh: 2.7; KSHV LANA nucl: -0.665

How did CCc1cc(=O)oc2cc(C)cc(OCC(=O)C(C)(C)C)c12 do in these assays?
BasE inh: 3.9

What do the screens show for `CCn1c(=O)c2c(n(Cc3ccccc3)c1=O)NC1=C(C(=O)CCC1)C2c1ccc(OC)cc1` (stereo not given)?
BasE inh: 3.4

How did COC(=O)c1ccc(CO/N=C/c2ccc(OC)cc2)o1 do in these assays?
BasE inh: -0.5

Results for CCOC(=O)c1cnc2c(C)c(Cl)ccc2c1NCCN(C)C ?
BasE inh: -6.8; KSHV LANA nucl: -0.418

How did O=C(Nc1ccccc1C(=O)OCn1nnc2ccccc2c1=O)c1ccco1 do in these assays?
BasE inh: -1.5

What do the screens show for `OC1COC(Oc2ccccc2)C(O)C1O` (stereo not given)?
BasE inh: 0.7; KSHV LANA nucl: 0.033

What do the screens show for `c1cc2nc3c(nc2c2nonc12)CCCC3`?
BasE inh: 1.3; KSHV LANA nucl: -1.02

Results for Cc1cccc(C(=O)OC(C)CN2C(C)CCCC2C)c1 (stereo not given) ?
BasE inh: -6.7; KSHV LANA nucl: -0.0035

How did CN(C)Cc1ccc(CNCc2cnn(-c3ccccc3)n2)cc1 do in these assays?
BasE inh: -1.8

4 consecutive entries from above, quoted:
What do the screens show for `Nc1c(C(=O)c2ccccc2)sc2nc3c(cc12)CCCC3`?
BasE inh: 1.3

Results for CC(=O)N(CCCCN1C(=O)c2ccccc2C1=O)c1ccc(C)cc1 ?
BasE inh: 2.7; KSHV LANA nucl: -0.665

How did CCc1cc(=O)oc2cc(C)cc(OCC(=O)C(C)(C)C)c12 do in these assays?
BasE inh: 3.9

What do the screens show for `CCn1c(=O)c2c(n(Cc3ccccc3)c1=O)NC1=C(C(=O)CCC1)C2c1ccc(OC)cc1` (stereo not given)?
BasE inh: 3.4
